Six1-Eya2 inh: blocks human Six1 binding to Eya2 | AlphaScreen GST-Six1/His-Eya2 binding, biochemical; active compounds read low; control for the full effect not named in the record | activity change, % (test concentration not listed) | AID 651725 | actives 0.56% (n = 360,000); in the data active = activity change below about -65%; inconclusive = about -30% to -65%; inactive = above about -30%; also: % is scaled to controls: 0 for no effect and ±100 for the full control effect
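GST-Six1 + His-Eya2 (5X stock: 250/500 nM); Tris pH 8.0, 300 mM NaCl, 0.05% BSA, 0.02% Tween 20; GSH donor/Ni acceptor beads; 1 h 37 °C dark; AlphaScreen readout.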
gsp antagonist: gsp mutant antagonism; gsp-mutant cells, cAMP HTRF, 30 min; control for the full effect not named in the record; Potency, µM (titrated, usually from 76.9 µM), for the others: at the top dose activity change, negative = inhibition, hits mostly inhibitors; actives 0.4% (n = 340,000); active = falling curve of any shape with a large fitted effect; inconclusive = falling curve, mostly with a smaller effect; inactive = flat or rising curve; cell line not stated here;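 also: intracellular cAMP measured with PDE inhibitor Ro 20-1724 present during compound exposure; potency is read from the fitted curve at half-maximal effect; % is scaled to controls: 0 for no effect and ±100 for the full control effect; nearly all actives have a fitted effect of over 65% in size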
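Cells, 2000/well, grown 16–24 h in DMEM 10% FBS with 0.5 mg/ml G418, then compounds plus […] (300 uM addition stock), 30 min at 37C. cAMP read by HTRF (cAMP-d2 and anti-cAMP antibody-K in lysis buffer) after 30 min RT.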
D2 potentiator: positive allosteric modulators of human D2 dopamine receptor | DiscoveRx D2 beta-arrestin cells, luminescence, 90 min; 100% = 57 uM dopamine signal | potentiation, % (test concentration not listed) | actives 0.23% (n = 360,000) | AID 624464; active = potentiation of 50% or more; inconclusive = 30% to 50%; inactive = 30% or less;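 also: compound concentration not given in the record; tested on top of an EC20 dose of dopamine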
Target sequence (P14416 whole entry, looked up): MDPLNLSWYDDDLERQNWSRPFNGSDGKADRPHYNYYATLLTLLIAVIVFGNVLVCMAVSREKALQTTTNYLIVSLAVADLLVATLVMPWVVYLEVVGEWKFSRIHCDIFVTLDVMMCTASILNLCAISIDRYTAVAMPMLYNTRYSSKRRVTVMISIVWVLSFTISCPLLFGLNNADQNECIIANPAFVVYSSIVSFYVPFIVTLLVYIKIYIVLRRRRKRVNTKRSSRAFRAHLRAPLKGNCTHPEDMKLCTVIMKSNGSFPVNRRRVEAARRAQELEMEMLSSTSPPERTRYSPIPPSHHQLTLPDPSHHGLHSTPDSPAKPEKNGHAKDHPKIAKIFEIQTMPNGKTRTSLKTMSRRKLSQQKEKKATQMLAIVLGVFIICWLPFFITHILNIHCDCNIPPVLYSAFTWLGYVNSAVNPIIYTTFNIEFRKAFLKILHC
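D2 cells co-treated with compound plus 50 nM dopamine (EC20) for 90 min at 37 deg C to detect potentiation. Beta-arrestin recruitment was read as enzyme-fragment luminescence after 1 h at ambient temperature. Full response was set by 57 uM dopamine.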
CtBP-E1A inh: blocks the CtBP interaction with E1A. actives 0.49% (n = 340,000). AlphaScreen GST-E1A/His-CtBP binding, 1536-well; active compounds read low; control for the full effect not named in the record. activity change, % (concentration not given with the values); in the data active means activity change below about -65%; inconclusive means about -30% to -65%; inactive means above about -30%; also: % is scaled to controls: 0 for no effect and ±100 for the full control effect
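AlphaScreen with 125 nM GST-E1A and 125 nM His-CtBP (5X stocks) in Tris pH 8.0, 300 mM NaCl, BSA, Tween 20, TCEP. Compounds preincubated 2 h at 37 deg C, then glutathione donor/nickel acceptor beads added for 1 h at 37 deg C in dark.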
gsp agonist: activates gsp, the McCune-Albright syndrome mutation | gsp mutant cells, cAMP HTRF, 30 min; control for the full effect not named in the record | actives 0.13% (n = 340,000) | Potency, µM (highest dose often 76.9 µM), for inactives: at the top dose activation (cAMP increase), actives largely listed as activators | AID 624287; active = well fitted activation curve with a large enough effect; inconclusive = small, poorly fitted or top-dose-only effect, or another doubt; inactive = no such curve, though single readings can be large or run the other way; cell line not stated here;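 also: phosphodiesterase inhibitor Ro 20-1724 added with compounds to block cAMP breakdown; potency is read from the fitted curve at half-maximal effect; nearly all actives have a fitted effect of over 60% in size; about a fifth of the inactives were tested at one dose only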
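Cells in DMEM/10% FBS with G418 were pretreated with compounds in DMSO plus […] (300 uM stock) for 30 min at 37C. cAMP was measured by HTRF (cAMP-d2 plus anti-cAMP antibody-K) after 30 min at room temperature.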
D2 ag: agonists of human D2 dopamine receptor (beta-arrestin); P14416; DiscoveRx PathHunter D2 beta-arrestin, luminescence, 90 min; 100% = 57 uM dopamine signal; activation, % (concentration not given with the values); actives 0.084% (n = 360,000); AID 624465; in the data active = activation above about 40%; inconclusive = about 15% to 40%; inactive = below about 15%; also: compound concentration not given in the record; the text of the record calls up to 30% inactive
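Agonist mode: compounds alone added to overnight-plated D2 PathHunter cells for 90 min at 37 C, with 57 uM final dopamine (EC100) defining full response. Beta-arrestin recruitment detected by chemiluminescent reagent, read after 1 h at ambient temperature.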
* = called active by the depositor; ? = inconclusive; / = no result given; [ ] = another dose, or the depositor's remark.

#1 CCC(=O)NC(c1cccs1)c1ccc2cccnc2c1O (configuration not stated)
#2 C[C@@H]1CN([C@H](C)CO)C(=O)CCCn2cc(nn2)CO[C@H]1CN(C)C(=O)Nc1ccc(C(C)(C)C)cc1
#3 Cc1nn2c(N)c(C#N)cnc2c1-c1ccc(Cl)cc1
#4 Cc1ccc(Cl)cc1NC(=O)c1ccccn1
#5 CN(C(=O)CSc1nnc2n1CCCCC2)C1(C#N)CCCCC1
assay / entry	1	2	3	4	5
Six1-Eya2 inh	-93*	5	0	8	0
gsp antagonist	-6%	/	20%	7%	14%
D2 potentiator	10	-5	9	-1	-6
CtBP-E1A inh	/	3	6	4	3
gsp agonist	-9%	/	?	-11%	17%
D2 ag	6.7	-3.3	0.9	-1.1	0.4

Part of the list above in a different format.
Every second line gives: Six1-Eya2 inh | gsp antagonist | D2 potentiator | CtBP-E1A inh | gsp agonist | D2 ag
[3] Cc1nn2c(N)c(C#N)cnc2c1-c1ccc(Cl)cc1
    0 | 20% | 9 | 6 | ? | 0.9
[4] Cc1ccc(Cl)cc1NC(=O)c1ccccn1
    8 | 7% | -1 | 4 | -11% | -1.1

More results.
#6 COc1ccc2c(C(F)(F)F)cc(=O)oc2c1C
#7 CN(CC(=O)NC(=O)NCc1ccco1)CC(=O)Nc1ccccc1Cl
#8 Cc1ccc2oc(C(=O)N(C)Cc3ccon3)c(C)c2c1
#9 CCN1CCN(C2=C(NS(=O)(=O)c3ccccc3)C(=O)c3ccccc3C2=O)CC1
#10 O=C(O/N=C1\CCCCC1c1ccc([N+](=O)[O-])cc1[N+](=O)[O-])c1c(F)cccc1F (configuration not stated)
assay / entry	6	7	8	9	10
Six1-Eya2 inh	14	-6	14	-14	?
gsp antagonist	11%	5%	5%	-20%	-14%
D2 potentiator	-20	-1	-3	-16	?
CtBP-E1A inh	5	2	/	/	?
gsp agonist	27%	26%	8%	20%	0%
D2 ag	0.4	-2.0	0.1	10	10

Nothing new here: two of the compounds above.
#8 Cc1ccc2oc(C(=O)N(C)Cc3ccon3)c(C)c2c1
#9 CCN1CCN(C2=C(NS(=O)(=O)c3ccccc3)C(=O)c3ccccc3C2=O)CC1
assay / entry	8	9
Six1-Eya2 inh	14	-14
gsp antagonist	5%	-20%
D2 potentiator	-3	-16
CtBP-E1A inh	/	/
gsp agonist	8%	20%
D2 ag	0.1	10

(next part)
#11 CCOc1ccc(N(CC(=O)NC2CCCC2)C(=O)CCC(=O)Nc2nccs2)cc1
#12 COc1ccc(OC)c(CN2CCC(C(=O)N3CCOCC3)CC2)c1
#13 Cn1c(=O)n(C)c2cc([N+](=O)[O-])c(N3CCN(S(=O)(=O)c4ccc(C(C)(C)C)cc4)CC3)cc21
#14 COC(=O)CCc1cccc(CCC(=O)OC)c1
#15 COC(=O)c1c(C(=O)OC)c(-c2ccc(Br)cc2)n2c1CS(=O)C2 (configuration not stated)
assay / entry	11	12	13	14	15
Six1-Eya2 inh	6	3	8	14	8
gsp antagonist	-3%	11%	-5%	-2%	-7%
D2 potentiator	-12	25	-5	-8	-15
CtBP-E1A inh	6	10	10	10	-18
gsp agonist	-8%[15.4 µM]	10%	-11%	/	-6%
D2 ag	-2.8	-0.8	-1.1	-4.1	1.1

An excerpt of these results, bar-delimited.
no. | mol | Six1-Eya2 inh | gsp antagonist | D2 potentiator | CtBP-E1A inh | gsp agonist | D2 ag
15 | COC(=O)c1c(C(=O)OC)c(-c2ccc(Br)cc2)n2c1CS(=O)C2 (configuration not stated) | 8 | -7% | -15 | -18 | -6% | 1.1
14 | COC(=O)CCc1cccc(CCC(=O)OC)c1 | 14 | -2% | -8 | 10 | / | -4.1
12 | COc1ccc(OC)c(CN2CCC(C(=O)N3CCOCC3)CC2)c1 | 3 | 11% | 25 | 10 | 10% | -0.8
8 | Cc1ccc2oc(C(=O)N(C)Cc3ccon3)c(C)c2c1 | 14 | 5% | -3 | / | 8% | 0.1

(listing goes on)
#16 CC(Sc1nnc(CN2CCCC2)n1Cc1ccccc1)C(=O)Nc1ccc(F)cc1 (configuration not stated)
#17 COc1cccc(/C=C/C(=O)c2ccc3c(c2)OCO3)c1OC
#18 CCOC(=O)C1=C(C)NC2=C(C(=O)c3ccccc32)C1c1cccc2ccccc12 (configuration not stated)
#19 O=C1C2CCCN2C(=O)N1CCCN1CCN(c2ccc([N+](=O)[O-])cc2)CC1 (configuration not stated)
#20 Cc1c(CCO)sc[n+]1CC(=O)OC12CC3CC(CC(C3)C1)C2
assay / entry	16	17	18	19	20
Six1-Eya2 inh	3	-5	-14	-7	-4
gsp antagonist	-6%	9%	-13%	12%	17%
D2 potentiator	-2	-5	-7	-34	-6
CtBP-E1A inh	8	12	-8	-9	-3
gsp agonist	34%	12%	7%[15.4 µM]	1%[15.4 µM]	-6%
D2 ag	-7.3	-0.3	-1.9	-5.6	0.3

Single entries from above:
compound 15 | gsp antagonist: -7%
compound 2 | Six1-Eya2 inh: 5

Additional records follow:
#21 Cc1ccc(-c2nc3ccccc3n3nnnc23)cc1
#22 Cc1cc2c(SCC(=O)NCC3CCCO3)ncnc2s1 (configuration not stated)
#23 CCOc1ccc(NCC2CCOC(C)(C)C2)cc1 (configuration not stated)
#24 Cc1ccc2c(-c3ccc([N+](=O)[O-])cc3)cc(=O)[nH]c2c1
#25 CCOc1ccc(C(=O)Nc2nnc(S(=O)(=O)N3CCCCC3)s2)cc1
assay / entry	21	22	23	24	25
Six1-Eya2 inh	7	-4	-6	1	9
gsp antagonist	6%	17%	-12%	6%	8%
D2 potentiator	-10	2	-23	-5	-7
CtBP-E1A inh	2	0	0	-4	/
gsp agonist	-23%	15%[15.4 µM]	11%	14%	14%
D2 ag	-3.5	3.1	-1.7	-2.7	0.3

#26 CCCCn1c(N)c(N(CC(C)C)C(=O)CSCC(=O)Nc2ccc(C)cc2)c(=O)[nH]c1=O
#27 Cc1[nH]c2ccccc2c1C(=O)C(=O)N1CC(C)OC(C)C1 (configuration not stated)
#28 CC(=O)c1c(C)[nH]c(C(=O)CSc2nnc(-c3ccco3)o2)c1C
#29 COc1cccc(S(=O)(=O)NCc2ccc(C(=O)NCc3ccccn3)cc2)c1
#30 Cc1ccc(C)c(N)c1
assay / entry	26	27	28	29	30
Six1-Eya2 inh	7	7	-12	-1	33
gsp antagonist	11%	-1%	-26%	5%	-1%
D2 potentiator	-10	2	-3	6	9
CtBP-E1A inh	3	6	-10	-6	7
gsp agonist	-8%	-2%	-1%	9%	/
D2 ag	-1.1	-0.7	3.0	-2.1	-3.4

#31 NC(=O)c1cc([N+](=O)[O-])c(Cl)cc1NCc1ccccn1
#32 CCN(CCCNC(=O)C1CCC(=O)N1Cc1ccc(F)cc1)c1cccc(C)c1 (configuration not stated)
#33 Cc1cccc(-c2noc(-c3ccccc3C(=O)NCc3ccco3)n2)c1
#34 O=C(Cc1ccc(NC(=O)C2CCCN(C(=O)C3CCCC3)C2)cc1)Nc1ccc(C(=O)N2CCOCC2)cc1 (configuration not stated)
#35 O=C(CNc1cccc2ccccc12)N/N=C/c1ccc([N+](=O)[O-])cc1
assay / entry	31	32	33	34	35
Six1-Eya2 inh	-18	0	-7	1	2
gsp antagonist	-10%	-12%	-10%	5%	-12%
D2 potentiator	-12	-23	4	/	6
CtBP-E1A inh	?	-10	4	-7	2
gsp agonist	?	4%	-13%[15.4 µM]	/	-4%
D2 ag	0.8	-1.2	-0.7	-1.2	2.1

#36 C=CCc1ccc(OCC(O)CN2CCN(Cc3ccccc3)CC2)c(OC)c1 (configuration not stated)
#37 CCCN(CC(=O)Nc1ccccc1OC)C(=O)CN1C(=O)NC2(CCCCC2)C1=O
#38 COc1ccc(NC(=O)CCN2C(=O)C3C4C=CC(C4)C3C2=O)cc1 (configuration not stated)
#39 COc1ccc(NC(=O)NS(=O)(=O)c2ccc(C)cc2)cn1
#40 O=C(NCc1ccccc1)c1onc(CSc2ccccn2)c1C(=O)NCc1ccccc1
assay / entry	36	37	38	39	40
Six1-Eya2 inh	-3	13	-4	-1	0
gsp antagonist	12%	-3%	5%	-2%	-12%
D2 potentiator	-6	1	5	0	-2
CtBP-E1A inh	-2	-12	0	0	4
gsp agonist	11%	23%	-5%[15.4 µM]	-3%[15.4 µM]	?
D2 ag	-3.1	-1.0	0.5	-1.1	0.8

#41 COc1ccc(Nc2n[nH]c(N)c2C(N)=O)cc1
#42 COC(=O)c1sccc1NC(=O)Cn1cnc2c1c(=O)n(C)c(=O)n2C
#43 O=C(CSCc1ccccc1)Nc1ccccc1C(=O)Nc1ccc(C(=O)O)cc1
#44 Cc1ccc(OCC(=O)Nc2cccc(-c3nnc(-c4ccccc4)o3)c2)cc1
#45 N#Cc1c(NCCO)ccc([N+](=O)[O-])c1NCCO
assay / entry	41	42	43	44	45
Six1-Eya2 inh	4	-3	10	0	-3
gsp antagonist	-17%	10%	-1%	-28%	11%
D2 potentiator	-1	-6	2	21	-5
CtBP-E1A inh	2	-2	0	-19	-9
gsp agonist	-24%	39%	-2%[15.4 µM]	-100%[inhibitor]	13%[15.4 µM]
D2 ag	-2.7	-2.2	-0.9	2.3	0.7

#46 CCOC(=O)CN1C(=O)/C(=C/c2ccc(Cl)cc2)Oc2ccccc21
#47 CC1(C)CN(c2ccc(-c3ccnc4ncnn34)cc2)C1=O
#48 C=CCc1c(C)nc(C)nc1N/N=C/c1ccc([N+](=O)[O-])cc1
#49 CCN(CC)c1ccc(C(=O)OCC(=O)Nc2cccc(S(=O)(=O)NC3=NCCCCC3)c2)cc1
#50 CCNS(=O)(=O)c1ccc(NC(=O)c2c(-c3ccccc3)noc2C)cc1
assay / entry	46	47	48	49	50
Six1-Eya2 inh	7	0	-4	-17	6
gsp antagonist	0%	5%	-10%	-28%	1%
D2 potentiator	1	0	-6	-13	-3
CtBP-E1A inh	-1	7	-12	-20	3
gsp agonist	3%	11%	-19%	?	18%[15.4 µM]
D2 ag	0.3	-1.6	-3.6	2.6	-8.5

#51 C=CCNC(=O)c1cc(Cl)cc(Cl)c1
#52 CC(Cc1ccccc1)C(=O)N[C@@H](CO)Cc1ccccc1 (some centres not stated)
#53 CCN(Cc1ccccc1)c1cc2c(c3c1ccn3C)C1CCC2C1 (configuration not stated)
#54 Cc1cc(C)c(OCC(=O)Nc2ccc(S(=O)(=O)N3CCOCC3)cc2)c(C)c1
assay / entry	51	52	53	54
Six1-Eya2 inh	1	2	?	-2
gsp antagonist	-9%	13%	/	-12%
D2 potentiator	-11	-1	-10	-26
CtBP-E1A inh	0	10	?	-4
gsp agonist	-10%[15.4 µM]	/	/	27%
D2 ag	-1.5	-2.1	-6.7	-0.5

Source: PubChem (National Center for Advancing Translational Sciences (NCATS))
